# Bioassay records as filed in PubChem.
# HSV replic up – increases HSV replication in cells; AID 1956; maximum fold increase; 220,000 tested, 0.005% active; HSV replication augmentation in cells, fold increase;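 active = peak rise of 1.5-fold or more in the series; inconclusive = self-fluorescent or not available for retest; tested in PC3 cells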;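 also: first round at 10 µM; read as green reporter fluorescence; hits show the peak of a series up to 25 µM; 1 = signal of infected wells without compound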
# RGS16-Gao HTS – modulates binding between human RGS16 and Galphao. O15492+P09471. bead-based flow cytometry RGS16-Galphao binding, fluorescence; actives lie on both sides. binding response (% of control), % at 10 µM. 220,000 tested, 0.38% active. AID 1441;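 active = below 25% or above 175%, edge rows of some plates excepted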;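 also: Galphao activated by GDP with aluminum fluoride before binding; 100% = wells without compound and 0% = beads without RGS; some results beyond the cut were filed as inactive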
# GALR2 ag – agonists of human galanin receptor 2 (GALR2); O43603; GALR2-expressing cells, agonist activation read-out; activation, %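 (tested at 5 µM)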; 140,000 tested, 0.48% active; AID 803;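 active = above mean plus 3 SD of all compounds, about 5% in these data, not always enough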;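 also: 0% = vehicle buffer wells and 100% = reference agonist at full effect; tested in CHO reporter cells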
# PKD1 inh – inhibitors of human PKD1 kinase | 200,000 tested, 0.056% active | AID 797 | inhibition, %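 (about 10 µM by stock and volumes)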 | Q15139 | PKD1 kinase fluorescence polarization assay;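 active = inhibition of 50% or more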;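 also: controls were vehicle for no effect and a reference inhibitor for full effect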
# Target sequence (Q15139 whole entry, looked up): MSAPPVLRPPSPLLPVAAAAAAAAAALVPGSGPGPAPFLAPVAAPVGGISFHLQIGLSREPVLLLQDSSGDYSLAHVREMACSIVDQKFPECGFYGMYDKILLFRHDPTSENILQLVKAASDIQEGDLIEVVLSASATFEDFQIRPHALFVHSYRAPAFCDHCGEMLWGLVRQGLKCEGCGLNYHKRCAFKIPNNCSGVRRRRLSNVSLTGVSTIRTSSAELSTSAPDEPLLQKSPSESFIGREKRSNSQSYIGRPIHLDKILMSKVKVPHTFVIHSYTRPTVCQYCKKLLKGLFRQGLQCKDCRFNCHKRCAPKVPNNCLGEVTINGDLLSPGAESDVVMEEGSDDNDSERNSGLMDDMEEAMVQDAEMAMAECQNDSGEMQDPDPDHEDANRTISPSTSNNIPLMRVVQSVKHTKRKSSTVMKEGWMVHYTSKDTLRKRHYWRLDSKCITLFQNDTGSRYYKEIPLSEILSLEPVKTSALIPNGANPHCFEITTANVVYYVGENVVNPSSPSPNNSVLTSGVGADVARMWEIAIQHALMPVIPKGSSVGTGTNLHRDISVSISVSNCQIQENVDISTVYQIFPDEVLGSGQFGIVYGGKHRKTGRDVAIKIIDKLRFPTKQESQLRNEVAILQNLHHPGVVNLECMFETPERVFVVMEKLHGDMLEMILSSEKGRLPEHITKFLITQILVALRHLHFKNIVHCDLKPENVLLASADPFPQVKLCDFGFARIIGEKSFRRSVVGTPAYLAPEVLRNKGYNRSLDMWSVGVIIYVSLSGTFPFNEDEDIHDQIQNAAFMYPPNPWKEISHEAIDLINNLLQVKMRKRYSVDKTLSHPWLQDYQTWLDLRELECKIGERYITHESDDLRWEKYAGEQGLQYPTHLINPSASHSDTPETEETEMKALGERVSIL
# INS promoter inh – TRM-6 insulin promoter activity inhibition; TRM-6 cells (human fetal islet line), insulin promoter-eGFP reporter, imaging; reporter expression induced with tamoxifen; inhibition, % at 2 µM; 130,000 tested, 0.9% active;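 active = inhibition above the mean plus 3 SD, with well images judged a real hit on visual review, cut at about 60% in these data, passing the limit was not always enough; inconclusive = inhibition over the cutoff but images rejected on review; inactive = inhibition not above the cutoff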
# INS promoter inh cell count – also measured in INS promoter inh; calls as there; normalized cell count, %; measured here: cell count, toxicity; reference of the scale not given here;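 cells exposed to compound for 48 h; stained nuclei by imaging scaled within each plate; lower means fewer cells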
# HSV replic up primary fold – recorded beside HSV replic up, whose call it bears; fold increase; compound at 10 µM; measured here: primary screen fold increase 10 uM; tested in PC3 cells;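 GFP signal in the first replicate; 1 = infected wells without compound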
# An asterisk follows results filed as active; i = inactive; u = inconclusive; x = not tested or not shown. Rows are unselected. Share with any hit: about 1.3%.
SMILES,HSV replic up,HSV replic up primary fold,RGS16-Gao HTS,GALR2 ag,PKD1 inh,INS promoter inh,INS promoter inh cell count
CCC(=O)c1ccc(OCc2ccc(C(=O)OC)cc2)c(OC)c1,i,1,120,-0.9,12,-10,156
O=C(Cn1nnc(-c2ccccc2)n1)Nc1ccccc1N1CCOCC1,i,1.1,100,-1.2,5,x,x
CC(C)c1nc2ccccc2c2nnc(SCC(=O)NCc3ccco3)n12,i,0.9,97,0.7,-9,18,177
COC(=O)c1sccc1NC(=S)N1CCCCC1C (stereo not given),i,1.1,104,-2.7,-3,x,x
CCCN1CCC(=O)N([C@H](CSc2ccc(C)cc2)Cc2ccccc2)CC1,i,0.91,110,x,x,x,x
Clc1ccc(Cn2ncc3c(N4CCCCC4)ncnc32)c(Cl)c1,i,0.86,108,-2.4,-2,x,x
CCOc1ccc(-c2nnc3sc(COc4ccc(C)cc4)nn23)cc1,i,0.93,99,-1.6,-6,0,81
COC(=O)C1=C(C(=O)OC)SC(=C2C(=S)C(C)(C)N(C(=O)C3CC3)c3ccccc32)S1,i,1.1,101,-5.7,0,-79,94
O=C(Nc1cccc(C(=O)N2CCOCC2)c1)c1ccccc1,i,0.87,103,-1.4,-2,-15,138
ONC(=Nc1ccc(Cl)cc1)c1ccc(Cl)cc1,i,0.88,98,-0.2,7,x,x
CCNc1nc(NCC)nc(N/N=C/c2ccc(O)c(O)c2)n1,i,0.9,99,x,-8,x,x
CCNC(=S)N(CCN(C)C)Cc1cc2cc(OCC)ccc2[nH]c1=O,i,0.98,108,x,-4,x,x
Cc1ccc2cc(CN(C(=O)c3ccco3)c3cccc(C)c3C)c(=O)[nH]c2c1,i,1.1,91,x,x,x,x
Cc1cc([N+](=O)[O-])nn1CCCC(=O)Nc1cccnc1Cl,i,0.98,102,x,-5,-38,148
Cc1ncc(CC(=O)n2cc(C(=O)c3cc(Cl)ccc3O)cn2)s1,i,0.86,104,-1.6,-1,11,124
Cc1c(C(=O)Nc2nccs2)sc2nc(-c3cccs3)cc(C(F)(F)F)c12,i,0.93,104,0.4,4,42,57
CC#CC(=O)N1CCC(CCc2ccccc2)(C(=O)OCC)CC1,i,1,103,x,-4,x,x
COc1cccc(-n2c(Cc3cc(=O)[nH]c(=O)[nH]3)nnc2SCC(=O)N2CCC(C)CC2)c1,x,x,102,-3.0,-21,-80,148
Cc1nn(-c2ccccc2)c(C)c1P(=O)(c1ccccc1)N(C)C (stereo not given),i,0.9,103,-0.8,0,x,x
CCNC(=O)Nc1ccccc1C(=O)OC,i,1.1,100,x,-8,x,x
Cc1cc(Cl)c(S(=O)(=O)NCc2cccnc2)cc1OCC(=O)NC1CCCCC1,i,0.83,87,-0.6,-7,-9,80
Cc1ccc(CN(C(=O)c2c(F)cccc2F)C2CC(C)(C)NC(C)(C)C2)o1,i,0.99,99,-0.4,-4,9,133
NNC(=O)CCN1CCN(Cc2ccccc2)CC1,i,1,99,x,0,-5,100
O=C(CN1CCOCC1)NNC(=S)Nc1ccc(Cl)cc1,i,1.1,99,x,-3,x,x
Cc1ccc(S(=O)(=O)N2CCC(=O)N(CCOC(=O)Nc3ccc(F)cc3)CC2)cc1,i,1.1,110,-2.8,-12,-14,45
Cc1cc(=O)oc(C)c1C(=O)NC1CC(C)(C)NC(C)(C)C1,i,0.87,137,-1.8,1,-271,80
CCOC(=O)C1CCN(C(=O)Cc2ccc(OC)c(OC)c2)CC1,i,0.9,99,0.3,0,-15,108
O=C(Cc1cccs1)Nc1ccc(-c2nnn(CC(=O)N3CCOCC3)n2)cc1,i,0.84,94,-1.3,-5,-14,77
CSc1ccc(C(=S)N2CCN(C)CC2)cc1,i,0.91,90,-2.6,0,11,75
COCCn1c(-c2ccc(Cl)cc2)cnc1SCC(=O)NCCc1ccc(OC)c(OC)c1,i,0.93,100,1.9,3,-44,106
CCc1cc(-c2n[nH]c(=S)n2N)n(C)n1,i,0.98,58,-1.4,9,x,x
CCOC(=O)COc1c(C=O)cc(Br)cc1OC,i,0.84,99,0.0,1,-7,51
CC(=O)C1=C(O)CCCC1=NCc1nc2ccccc2[nH]1,i,0.91,87,x,-4,33,100
CC(C)(NC(=O)c1cc(Cl)c2ccccc2c1O)C(=O)O,i,0.99,99,x,x,x,x
O=C(CC(c1ccc(F)cc1)c1ccco1)Nc1nccs1 (stereo not given),i,0.99,103,x,-5,x,x
CCOc1ccc(OCC(=O)OCn2c(SC)nnc(C)c2=O)cc1,i,0.97,252,-1.7,9,35,89
COc1ccc(S(=O)(=O)NCc2ccccc2Cl)cc1OC,i,0.98,102,-2.3,7,-19,89
O=C1C2C3C=CC(CC3)C2C(=O)N1/N=C/c1c[nH]c2ccccc12 (stereo not given),i,0.93,98,x,-1,x,x
Cc1ccc(C(=O)NC(=S)NNC(=O)c2ccccc2[N+](=O)[O-])cc1,i,0.78,101,-0.8,-11,44,160
CCOC(=O)c1ccc(NC(=O)CN2C(=O)C(C)SC(C)C2=O)cc1 (stereo not given),i,0.83,99,-0.7,6,x,x
CC(C)C(=O)N1CCN(c2nc(-c3ccccc3)c3c(c2C#N)CCCC3)CC1,i,0.82,104,-0.1,0,25,126
Cc1cccc(N2CCN(C(=O)C3CCN(S(=O)(=O)N4CCOCC4)CC3)CC2C)c1 (stereo not given),i,0.96,103,x,-3,21,95
CCOC(=O)C1=C(C)OC(N)=C(C#N)C1c1ccc(C)s1 (stereo not given),i,1,100,x,-4,23,116
CC(=O)Oc1ccc2c(c1)O/C(=C\c1ccncc1)C2=O,u,x,104,x,x,x,x
N#Cc1c(-c2cccc(Cl)c2)[nH]c(=S)[nH]c1=O,i,0.72,82,x,x,x,x
COc1ccc(Cl)cc1Nc1cc(C)nc2nc(C)nn12,x,x,89,-3.1,3,5,130
O=C(/C=C\c1ccco1)Nc1ccc(N2CCN(C(=O)c3ccccc3)CC2)cc1,i,0.87,98,-1.4,-1,21,183
O=C(COc1cccc2ccccc12)N/N=C/c1ccc(Sc2nc3ccccc3s2)o1,i,0.84,107,-2.6,-7,14,71
CC1CCC(C(C)C)C(OCC(O)CNC(C)C)C1 (stereo not given),i,0.95,97,x,x,x,x
Cc1cc(/C=C2\Sc3ccccc3N2C)cc(C)[n+]1CC1CCCO1 (stereo not given),x,x,100,x,1,x,x
# Next section:
SMILES,HSV replic up,HSV replic up primary fold,RGS16-Gao HTS,GALR2 ag,PKD1 inh,INS promoter inh,INS promoter inh cell count
CCOc1ccc(C(=O)N2CCN(c3cnn(-c4ccccc4)c(=O)c3Cl)CC2)cc1,i,1.1,99,x,-3,x,x
CN1/C(=C\C=Nc2ccc3ccccc3c2)C(C)(C)c2ccccc21,i,1.1,98,-1.4,-12,-6,50
O=C(/C=C/c1ccc(O)cc1)c1c(O)cc(O)cc1O,i,0.64,104,x,x,x,x
CCNC(=S)Nc1sc2c(c1C#N)CCC(C)C2 (stereo not given),i,0.91,96,x,x,x,x
CCOC(=O)Cc1cc(=O)[nH]c(/N=C(\N)Nc2ccc(C)c(C)c2)n1,i,0.91,100,x,-1,13,107
CCCSc1nc2cc(C)c(C)cc2n1CC(C)O (stereo not given),i,1,100,x,1,x,x
CCn1c(SCC(=O)Nc2cccc(C)c2)nc2nc3c(cc2c1=O)COC(C)(C)C3,i,0.93,102,x,x,x,x
C/C(=N\Nc1cccc2cccnc12)c1ccccc1O,i,1,91,x,-12,x,x
COc1ccc(NS(=O)(=O)c2ccc(N3CCOCC3)c(NC(=O)c3ccccc3Cl)c2)cc1,i,1,100,-0.7,-17,-69,66
Cc1cc(N)n(-c2ccccn2)n1,i,1.1,115,x,x,x,x
CCCC(=O)Nc1ccc(C#Cc2ccccc2)cc1,i,0.94,101,-2.6,0,-179,117
O=C(O)CCNC(=O)/C(=C/C=C/c1ccccc1)NC(=O)c1ccccc1,i,1.2,103,x,-3,x,x
COc1ccccc1-n1c(SCC(=O)N(C)C2CCS(=O)(=O)C2)nc2ccccc2c1=O (stereo not given),i,1,100,-1.5,-7,x,x
CCc1ccccc1OCc1nnc(N)s1,i,0.96,101,-0.6,-16,x,x
Cc1ccc(CC(=O)NCC(C)C)cc1,i,1,27,-3.3,-4,27,114
O=C(NCCCn1ccnc1)/C(=C/c1cccnc1)NC(=O)c1ccco1,i,0.94,102,x,x,x,x
CC(C)c1ccccc1OCCCCCNCCO,i,0.92,105,0.7,-7,x,x
O=C(NCc1ccco1)c1ccc2c(=O)n(-c3ccccc3)c(=S)[nH]c2c1,i,0.61,101,-1.3,9,-7,48
Cc1cc(C(=O)NCc2cc(F)cc3c2OCOC3)nn1C,i,0.99,97,x,x,x,x
Cc1cc(C(=O)OCC(=O)Nc2c(F)cccc2F)c(C)n1-c1ccccc1,i,0.98,100,x,-8,x,x
O=C(C1CCN(c2ccc(N3CCOCC3)nn2)CC1)N1CCN(c2ccc(F)cc2)CC1,i,0.82,101,1.1,-2,x,x
CCOC(=O)c1c(C)oc2c1c(C=NC1CCS(=O)(=O)C1)c(O)c1ccccc12 (stereo not given),x,x,94,-1.6,-7,9,98
CCC1(C(=O)OC)NC(c2cccc(F)c2)C2C(=O)N(C)C(=O)C21 (stereo not given),i,1.1,104,0.7,9,-42,95
CCCn1nnc(NC(=O)c2sc3ccccc3c2Cl)n1,i,0.98,98,-1.9,-3,6,78
COCCNC(=O)CN(C(=O)Cn1nnc2ccccc21)c1ccc(C)c(F)c1,i,0.97,118,-0.4,-12,31,108
Cc1ccc(NC2SC(=O)N(Cc3cccc(C(=O)O)c3)C2=O)c(C)c1 (stereo not given),i,1,101,x,x,x,x
COc1ccc(C(=O)N/N=C/c2ccccc2C(=O)O)cc1OC,i,0.84,97,x,x,x,x
COc1cccc(/C(C)=N/NC(=O)Cc2c(C)[nH][nH]c2=O)c1,i,1,100,x,-9,33,106
COc1cccc(-c2nnn(CC(=O)Nc3cc(OC)c(NC(=O)c4ccco4)cc3OC)n2)c1,i,1.1,101,-1.1,-6,32,138
CCOc1cc(/C=N/NC(=O)CCCC(=O)NC2CCCCC2)ccc1O,i,0.97,101,0.2,0,11,110
Cc1ccc(S(=O)(=O)N2CCN=C2SCc2ccccc2)cc1,x,x,107,x,-1,38,166
Cc1cccc(NC(=O)CCCCCN2C(=O)c3ccccc3C2=O)n1,i,0.99,90,-2.0,2,50,142
Nc1nc(NC(=O)c2cccs2)nn1-c1ccccc1,i,0.97,98,-1.5,3,-30,110
Cc1cc(NC(=O)c2ccccc2)n(-c2ccccc2)n1,i,1.1,102,x,7,x,x
